From PubChem BioAssay
nsP2pro primary: Primary qHTS for inhibitors of NSP2Pro chikungunya virus (CHIKV); Polyprotein P1234 (Chikungunya virus (strain S27-African prototype)), Q8JUX6; FRET peptide cleavage, nsP2pro, fluorescence 1 h; Potency, µM (top dose mostly 24.9 µM), for inactives: at the top dose activity change, negative = inhibition, usual class: inhibitors; hit rate 1.1% among 31,000; active means well fitted inhibition curve with a large enough effect; inconclusive means small, poorly fitted or top-dose-only effect; inactive means no such curve, though single readings can be large or run the other way; note: nearly all actives have a fitted effect of over 60% in size; a reference inhibitor and vehicle were the controls
Target sequence (Q8JUX6 whole entry, looked up): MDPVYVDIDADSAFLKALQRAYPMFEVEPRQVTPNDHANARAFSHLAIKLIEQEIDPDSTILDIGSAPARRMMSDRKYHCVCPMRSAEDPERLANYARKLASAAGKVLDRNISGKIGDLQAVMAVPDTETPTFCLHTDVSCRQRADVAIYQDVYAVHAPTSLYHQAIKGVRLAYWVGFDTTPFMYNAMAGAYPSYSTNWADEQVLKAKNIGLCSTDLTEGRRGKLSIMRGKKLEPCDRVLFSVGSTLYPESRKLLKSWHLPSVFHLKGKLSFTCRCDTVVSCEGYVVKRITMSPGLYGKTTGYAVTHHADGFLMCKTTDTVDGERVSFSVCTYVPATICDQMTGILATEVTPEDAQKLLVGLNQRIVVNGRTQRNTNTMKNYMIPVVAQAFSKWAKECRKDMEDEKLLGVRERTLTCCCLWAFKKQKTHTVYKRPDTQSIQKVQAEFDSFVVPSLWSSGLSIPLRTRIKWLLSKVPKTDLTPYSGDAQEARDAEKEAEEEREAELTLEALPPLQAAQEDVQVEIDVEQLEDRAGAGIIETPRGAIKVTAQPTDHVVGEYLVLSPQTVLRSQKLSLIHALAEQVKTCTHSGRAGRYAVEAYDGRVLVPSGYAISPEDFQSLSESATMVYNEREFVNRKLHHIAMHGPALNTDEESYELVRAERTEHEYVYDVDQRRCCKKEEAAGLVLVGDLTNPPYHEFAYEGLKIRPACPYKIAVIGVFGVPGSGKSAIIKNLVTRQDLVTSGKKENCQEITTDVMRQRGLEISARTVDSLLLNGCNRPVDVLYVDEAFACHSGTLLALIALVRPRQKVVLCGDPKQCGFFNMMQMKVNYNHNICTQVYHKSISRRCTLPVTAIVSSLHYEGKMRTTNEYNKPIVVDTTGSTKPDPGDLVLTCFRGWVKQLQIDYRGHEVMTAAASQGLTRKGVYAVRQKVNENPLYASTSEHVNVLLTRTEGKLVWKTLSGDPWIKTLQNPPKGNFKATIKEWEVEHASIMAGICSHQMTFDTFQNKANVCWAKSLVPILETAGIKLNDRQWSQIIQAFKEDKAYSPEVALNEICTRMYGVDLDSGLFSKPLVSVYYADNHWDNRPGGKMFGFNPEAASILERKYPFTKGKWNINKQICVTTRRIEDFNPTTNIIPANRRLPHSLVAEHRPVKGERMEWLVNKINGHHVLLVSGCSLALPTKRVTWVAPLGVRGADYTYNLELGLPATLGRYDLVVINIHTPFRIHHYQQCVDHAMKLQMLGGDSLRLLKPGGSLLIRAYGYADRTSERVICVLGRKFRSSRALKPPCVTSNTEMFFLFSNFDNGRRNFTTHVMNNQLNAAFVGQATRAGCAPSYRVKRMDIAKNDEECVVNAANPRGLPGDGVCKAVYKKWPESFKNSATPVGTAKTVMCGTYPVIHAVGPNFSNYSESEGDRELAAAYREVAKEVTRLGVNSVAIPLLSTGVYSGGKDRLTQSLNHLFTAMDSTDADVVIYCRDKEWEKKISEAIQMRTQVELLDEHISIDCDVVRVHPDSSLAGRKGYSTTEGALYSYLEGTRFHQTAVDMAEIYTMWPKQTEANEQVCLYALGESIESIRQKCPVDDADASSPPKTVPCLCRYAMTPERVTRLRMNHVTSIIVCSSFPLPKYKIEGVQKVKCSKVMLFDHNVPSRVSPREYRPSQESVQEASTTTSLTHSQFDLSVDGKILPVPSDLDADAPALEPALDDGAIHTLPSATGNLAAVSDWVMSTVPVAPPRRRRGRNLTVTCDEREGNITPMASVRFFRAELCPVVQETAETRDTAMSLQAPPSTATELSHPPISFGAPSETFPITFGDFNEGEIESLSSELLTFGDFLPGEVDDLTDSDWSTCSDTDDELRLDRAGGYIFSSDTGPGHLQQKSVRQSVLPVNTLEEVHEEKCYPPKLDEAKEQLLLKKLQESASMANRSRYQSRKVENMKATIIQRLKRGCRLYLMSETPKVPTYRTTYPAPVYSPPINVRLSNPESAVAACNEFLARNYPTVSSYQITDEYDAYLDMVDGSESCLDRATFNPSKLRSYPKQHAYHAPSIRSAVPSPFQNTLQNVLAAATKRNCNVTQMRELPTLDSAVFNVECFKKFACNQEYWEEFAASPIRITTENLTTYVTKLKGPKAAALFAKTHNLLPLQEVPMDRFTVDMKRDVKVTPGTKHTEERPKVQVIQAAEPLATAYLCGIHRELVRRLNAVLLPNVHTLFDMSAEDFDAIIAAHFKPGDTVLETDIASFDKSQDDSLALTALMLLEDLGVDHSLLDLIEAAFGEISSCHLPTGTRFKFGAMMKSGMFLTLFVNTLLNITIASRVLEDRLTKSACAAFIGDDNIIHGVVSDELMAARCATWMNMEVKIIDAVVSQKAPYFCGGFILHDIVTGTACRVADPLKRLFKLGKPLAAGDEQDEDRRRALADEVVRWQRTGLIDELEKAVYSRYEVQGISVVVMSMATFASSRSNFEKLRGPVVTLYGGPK
An asterisk follows results filed as active; i = inactive; ? = inconclusive; & = joins results of further samples; [ ] = another dose, or the depositor's remark. % is set by controls: 0 for no effect and ±100 for the full control effect; potency is the fitted concentration of half-maximal effect. Not all compounds are listed. The share of hits here may be higher or lower than overall.

nr	structure	nsP2pro primary
1	Cc1ccc(-c2nc(CS(=O)CC(=O)O)c(C)o2)cc1 (configuration not stated)	?
2	CCC(Sc1nnc2c3ccccc3n(CC)c2n1)C(=O)Nc1nnc(C(C)C)s1 (configuration not stated)	-18%
3	COc1cccn(CC(=O)N(C)Cc2csc(C(C)C)n2)c1=O	-4%
4	CC(C)(C)NS(=O)(=O)c1cccc(Nc2nn3c(=O)c4ccccc4nc3s2)c1	i
5	Cc1nc(-c2cccc(S(=O)(=O)N3CCC(C(=O)NCc4ccccc4Cl)CC3)c2)no1	-16%
6	COc1cccc(CCN2C(=O)c3ccccc3NC2c2ccc(OC)c(COc3c(C)cc(NC(C)=O)cc3C)c2)c1 (configuration not stated)	2%
7	COc1cc(/C=C(\C#N)c2nc3ccccc3[nH]2)cc(Cl)c1OCc1ccccc1Cl	25%
8	Nc1nc(NC2CC2)c2ncn([C@H]3C=C[C@@H](CO)C3)c2n1	?
9	C[C@]12CC[C@H](O)C[C@H]1CC[C@@H]1[C@@H]2[C@H](O)C(=O)[C@]2(C)[C@@H](c3ccc(=O)oc3)CC[C@]12O	2%
10	NC(=O)CN1CCC(c2nc(-c3ccc4nc[nH]c4c3)no2)CC1	i

Values in list order from the list.
nsP2pro primary, nos. 1 to 10 → ?, -18%, -4%, i, -16%, 2%, 25%, ?, 2%, i

Additional results:
nr	structure	nsP2pro primary
11	O=C(CSc1nnc(-c2cccc([S+](=O)([O-])N3CCCC3)c2)n1-c1ccccc1)Nc1ccc(Br)cc1	4%
12	O=C(C1CC(=O)N(C2CC2)C1)N1CCC(Oc2ccccc2Cl)CC1 (configuration not stated)	-9%
13	Cc1ccc(-c2nnc(SCC(=O)NC(C)(C)C)nc2-c2ccc(C)cc2)cc1	-9%
14	Cc1nc(N)ncc1C(=O)N(C)Cc1cn[nH]c1-c1ccccc1	i
15	Nc1nc(/C(=C/CC(=O)O)C(=O)N[C@@H]2C(=O)N3C(C(=O)O)=CCS[C@H]23)cs1	-2%
16	CC(=O)NC1CC(=O)C23C(=O)NC(Cc4c[nH]c5ccccc45)C2C(C)=C(C)C(O)C3/C=C/CC(C)/C=C(/C)C(O)C1O (configuration not stated)	?
17	CCCn1c(C)cnc1CCNC(=O)CC1CCN(C(C)=O)CC1	i
18	Nc1ncnc2c1ncn2CCOCP(=O)(O)O	-2%[0.199 µM]
19	CCn1c(CO)nnc1C1CC(NC(=O)c2nn(C)c(C)c2Cl)C1 (configuration not stated)	3%
20	CN(CCOc1ccc(CC2SC(=O)NC2=O)cc1)c1ccccn1 (configuration not stated)	3%

Among those listed so far, these have a tert-butyl group.
nr	structure	nsP2pro primary
4	CC(C)(C)NS(=O)(=O)c1cccc(Nc2nn3c(=O)c4ccccc4nc3s2)c1	i
13	Cc1ccc(-c2nnc(SCC(=O)NC(C)(C)C)nc2-c2ccc(C)cc2)cc1	-9%

(cont.)
nr	structure	nsP2pro primary
21	Cc1cc(C(=O)N2CCC3(CC2)CC(N2CCN(c4ccccn4)CC2)CCO3)n[nH]1 (configuration not stated)	i
22	CC(NC(=O)CNC(=O)c1cccc(-c2ccc(C(F)(F)F)cc2)c1)c1ccc(F)cc1 (configuration not stated)	3%
23	Cc1cnc(C(=O)NC2CC(c3nnc(CO)n3C3CC3)C2)[nH]1 (configuration not stated)	i
24	C[C@]12CC[C@@H]3c4ccc(O)cc4C[C@@H](CCCCCCCCCS(=O)CCCC(F)(F)C(F)(F)F)[C@H]3[C@@H]1CC[C@@H]2O (some centres not stated)	-4%
25	Cc1ccc(C(=O)N2CCCCC2)cc1NC(=O)c1nsc2ccccc12	-25%
26	Cc1cccc(CCn2c(=O)c3ccccc3n(Cc3cccc(F)c3)c2=O)c1	-23%
27	C=C1CCC2C(C)(C)CCCC2(C)C1CC/C(C)=C\CO (configuration not stated)	32%
28	CCOc1ccc(Cn2c(CNS(=O)(=O)c3cccs3)nc3cccnc32)cc1	-28%
29	COc1ccc(S(=O)(=O)Nc2ccc(-c3cn4ccsc4n3)cc2)cc1C	-9%
30	CC(C)NCC(O)COc1cccc2[nH]ccc12 (configuration not stated)	11%&0%

Later entries
nr	structure	nsP2pro primary
31	CCSc1ncc(Cl)c(C(=O)Nc2c(C(=O)c3ccc(C)c(F)c3)oc3ccccc23)n1	-13%
32	Cc1cc2c(s1)c1cnn(Cc3c(Cl)cccc3Br)c(=O)c1n2C	?
33	COCCNc1nc2c(c(=O)n(Cc3cccc(Br)c3)c(=O)n2C)n1C	-2%
34	CCOC(=O)c1ccc(NC(=O)c2nc(SC(C)C)ncc2Cl)cc1	-21%
35	C[C@@H]1O[C@@H](O[C@@H]2[C@@H](O)[C@H](O[C@H]3CC[C@@]4(C)C(CC[C@]5(C)C4CC=C4[C@@H]6CC(C)(C)CC[C@]6(C(=O)O[C@@H]6O[C@H](CO)[C@@H](O)[C@H](O)[C@H]6O)CC[C@]45C)C3(C)C)O[C@H](C(=O)O)[C@H]2O)[C@H](O)[C@H](O)[C@H]1O (some centres not stated)	2%[5.1 µM]
36	C=C1C[C@]2(O)[C@@]3(C)CCC(=O)C(C)(C)C3=C(O)C(=O)[C@@]2(C)[C@@H]2C(=O)O[C@@](C)(C(=O)OC)C(=O)[C@@]12C	-6%[10 µM]
37	CCC(=O)N1CCC(CC(=O)N2CCOCC2)C1 (configuration not stated)	4%
38	CSc1ccc(CCNC(=O)c2cc3c(-c4ccccc4F)nn(C)c3s2)cc1	-10%
39	CC(C)=CCNc1ncnc2c1ncn2[C@@H]1O[C@H](CO)[C@@H](O)[C@H]1O	12%
40	Fc1ccc(-c2cn3cc(Cc4ccc(Cl)cc4)sc3n2)cc1	-10%

Excerpt: entries 31–35
nr	structure	nsP2pro primary
31	CCSc1ncc(Cl)c(C(=O)Nc2c(C(=O)c3ccc(C)c(F)c3)oc3ccccc23)n1	-13%
32	Cc1cc2c(s1)c1cnn(Cc3c(Cl)cccc3Br)c(=O)c1n2C	?
33	COCCNc1nc2c(c(=O)n(Cc3cccc(Br)c3)c(=O)n2C)n1C	-2%
34	CCOC(=O)c1ccc(NC(=O)c2nc(SC(C)C)ncc2Cl)cc1	-21%
35	C[C@@H]1O[C@@H](O[C@@H]2[C@@H](O)[C@H](O[C@H]3CC[C@@]4(C)C(CC[C@]5(C)C4CC=C4[C@@H]6CC(C)(C)CC[C@]6(C(=O)O[C@@H]6O[C@H](CO)[C@@H](O)[C@H](O)[C@H]6O)CC[C@]45C)C3(C)C)O[C@H](C(=O)O)[C@H]2O)[C@H](O)[C@H](O)[C@H]1O (some centres not stated)	2%[5.1 µM]

New compounds follow:
nr	structure	nsP2pro primary
41	O=C1CCC2(CCCN(c3ncccc3F)C2)CN1Cc1ccncc1 (configuration not stated)	-6%
42	CNC(=O)c1c(NC(=O)/C=C/c2ccccc2Cl)sc2c1CCC2	-16%
43	Fc1ccc(OC2CN(CC3CCCCC3)C2)c(F)c1	i
44	Cc1cnc(-c2cccnc2)n1CC1CCN(S(=O)(=O)c2ccccc2)CC1	i
45	Cc1cc2[nH]c(=O)c(=O)[nH]c2cc1S(=O)(=O)N1CCN(c2cccc(C(F)(F)F)c2)CC1	-18%
46	CCCC(=O)NC(C)c1nc2ccccc2n1Cc1ccccc1 (configuration not stated)	-16%
47	COc1ccc(-c2nc3cc(NC(=O)COc4ccc(F)cc4)ccc3o2)cc1	-24%
48	C=CC(C)(CCC=C(C)C)O[C@@H]1O[C@H](CO)[C@@H](O)[C@H](O)[C@H]1O (some centres not stated)	10%
49	CC1=C(c2ccc(C)c(C)c2)S(=O)(=O)N(Cc2ccc(C(=O)NC(C)c3ccccc3)cc2)C1=O (configuration not stated)	-13%
50	CCCNC(=O)C1Cc2cc(S(=O)(=O)N3CCCCCC3)ccc2N1C(C)=O (configuration not stated)	-19%

Next part
nr	structure	nsP2pro primary
51	COc1cccc(CN2CCOC3CCN(Cc4ccccc4Cl)CC3C2=O)c1 (configuration not stated)	?
52	CSCC[C@H](N)C(=O)N1CCC2(CCC(=O)N(Cc3ccccc3)C2)CC1	-1%
53	CNC(=O)N1CCC(C2CCN(C(=O)c3cnn(C)c3)C2)CC1 (configuration not stated)	-2%
54	O=C1CCc2cc(S(=O)(=O)Nc3cccc(C(F)(F)F)c3)ccc2N1	i
55	c1ccc(CCCc2noc(-c3ccc(N4CCOCC4)nc3)n2)cc1	i
56	CC(C)S(=O)(=O)N1CCC2(CC1)CC1C(=O)NCCN1C2 (configuration not stated)	i
57	Cn1ccc(C(=O)N2CCC3(CC2)CC(=O)N(C/C=C/c2ccccc2)C3)n1	-3%
58	Cc1ccc(C)c(N2CCN(C(=O)CCc3c(C)nc4c(c3C)c(=O)n(C)c(=O)n4C)CC2)c1	-2%
59	Cc1[nH]c2ccccc2c1SCCNC(=O)c1ccc(F)cc1	-12%
60	CC(=O)N1CCc2c(sc3c2c(=O)n(-c2ccccc2C)c(=O)n3CC(=O)c2ccccc2)C1	-12%

Next part:
nr	structure	nsP2pro primary
61	COc1cc2ncnc(Nc3cc(Br)c(O)c(Br)c3)c2cc1OC	5%
62	O=C1CCN(C(=O)C2(c3ccccc3)CC2)CCCCCCN1	-1%
63	COc1cc(C)c2c(c1C)C[C@H](C(C)C(=O)NCc1cccs1)CC2 (some centres not stated)	?
64	Cc1c2cnn(CC(=O)NCc3ccccc3)c(=O)c2c(C)n1Cc1cccc(Cl)c1	-13%
65	Cc1ccc(N(C)S(=O)(=O)c2nnc(NC(=O)CC(C)C)s2)cc1	-19%
66	Cc1ccc(NC(=O)N[C@H]2C[C@@](O)(C(=O)N[C@H]3CCCNC3=O)C[C@@H](O)[C@@H]2O)cc1	-6%[39.2 µM]
67	CCOC(=O)[C@H](CCc1ccccc1)N[C@@H](C)C(=O)N1[C@H](C(=O)O)C[C@H]2CCCC[C@@H]21	9%&-14%
68	Cc1noc([C@H]2CCN(CC3CC3)C[C@H]2NC(=O)C2CCOCC2)n1	1%
69	O=c1cc(-c2ccc(O)c(O)c2)oc2cc(O[C@@H]3O[C@H](CO)[C@@H](O)[C@H](O)[C@H]3O)cc(O)c12	52%[activator]
70	Cc1oc(S(=O)(=O)N2CCCCC2)cc1NC(=O)Nc1ccccc1	?

(next part)
nr	structure	nsP2pro primary
71	C#C[C@H]1CN2CC[C@H]1C[C@@H]2CNS(=O)(=O)CCC	i
72	Cc1ccc(C)n1-c1cccc(-c2nn[nH]n2)c1	i
73	CC(=O)C1=CCC2C3CC=C4CC(O)CC(O)C4(C)C3C(O)CC12C (configuration not stated)	-9%
74	Cn1c(=O)c2c(-c3ccc(Cl)cc3)n(Cc3ccccc3)cc2n(C)c1=O	?
75	COc1ccc(C(=O)C2CCCN(Cc3csc(C(C)=O)c3)C2)c(OC)c1 (configuration not stated)	2%
76	Cc1nc(N2CCCC2)nc(N2CCC3(CC2)OCCCC3O)c1C (configuration not stated)	i
77	CC(C)C(C(=O)N(C)C(C)C(N)=O)N(C)C(=O)C1CCCN1C(=O)/C=C/C=C/C(O)C(C)O (configuration not stated)	-15%[10 µM]
78	O=C(O)CCc1ccc(NCc2cccc(Oc3ccccc3)c2)cc1	-1%
79	CC(C)C(O)(CO)CCO[C@@H]1O[C@H](CO[C@H]2OC[C@](O)(CO)[C@H]2O)[C@@H](O)[C@H](O)[C@H]1O (some centres not stated)	?
80	CN(C)C[C@H]1O[C@H](Cc2cc(CN(C)Cc3ccccc3)on2)CC[C@@H]1O	-1%[39.2 µM]

Next entries:
nr	structure	nsP2pro primary
81	C=C1C(=O)O[C@@H]2CC(C)=C([C@@H](C)CCCOC(C)=O)[C@@H](O)[C@H]12	54%[activator]
82	CCOC(=O)c1c(C)c(-c2ccccc2)n(CC(=O)NC2CCCCCC2)c1C	-27%
83	O=C1CN(C(=O)COc2ccccc2)C(c2ccc(F)cc2)c2cc(Br)ccc2N1 (configuration not stated)	-13%
84	CS(=O)(=O)c1cccc(-c2nnc(NC(=O)c3ccc4c(c3)OCCO4)o2)c1	-1%
85	O=S(=O)(Nc1cc(F)ccc1F)c1ccc2[nH]c3c(c2c1)CCCCC3	?
86	O=C1CCc2ccccc2O1	-5%
87	Cc1cc(C)n(CCc2nc3c4ccccc4nc(N4CCN(c5cccc(C)c5C)CC4)n3n2)n1	1%&-17%
88	CC(NC(C)(C)C)C(=O)c1cccc(Cl)c1 (configuration not stated)	-11%&-2%
89	COc1ccc(NC(=O)COc2ccc(S(=O)(=O)NC3CCCCC3)cc2)c(OC)c1	-18%
90	COc1ccc2nc(-c3cccc(F)c3)sc2c1	1%

(cont.)
nr	structure	nsP2pro primary
91	N#Cc1cccnc1-c1ccc(C(=O)N2CCC(N[S+](=O)([O-])c3cccc(C(F)(F)F)c3)CC2)cc1	-12%
92	CC(C)[C@@H](CS(=O)(=O)C(C)C)N1C(=O)[C@@](C)(CC(=O)O)C[C@H](c2cccc(Cl)c2)[C@H]1c1ccc(Cl)cc1	?
93	Cc1ncsc1CCC(=O)N1CC[C@@H]2[C@@H](CCC(=O)N2CCN)C1	i
94	COc1ccc(OC)c(CNS(=O)(=O)c2ccc(-c3cc(C(F)(F)F)on3)s2)c1	-11%
95	COCCCNC(=O)c1cnc2sc(N3CCCCCC3)nn2c1=O	-16%
96	Cc1cc(C)cc(NCc2nnc3n2CCCCC3)c1	-23%
97	O=C1NCc2nc3ccccc3c(=O)n2C1Cc1c[nH]c2ccccc12 (configuration not stated)	-7%
98	COc1ccc(-c2ccc3ncnc(NCc4cccs4)c3c2)cc1	3%
99	c1ccc(-c2noc(-c3cncnc3NC3CCCCC3)n2)cc1	-4%
100	Oc1ccc(CCNCCCCCCNCCc2ccccc2)cc1O	-13%

The list goes on.
nr	structure	nsP2pro primary
101	CN(C)C[C@@H]1CN(c2ncccn2)C[C@H]1N	i
102	COc1ccc(-c2ccc(CN3CC(C)(NC(C)=O)C3)s2)cn1	i
103	CN1C(=O)c2ccccc2NC(=O)[C@]12O[C@@H]2c1cccc(O)c1	7%
104	COc1cccc(-c2nnc3n(Cc4ccccc4Cl)c(=O)c4ccccc4n23)c1O	-6%
105	O=C(Nc1ccc(-c2cn[nH]c2)cc1)Nc1nnc(-c2ccncc2)s1	i
